Assay outcomes (PubChem BioAssay)
Vif A3G: HIV-1 Vif–A3G interaction blockers – biochemical, TR-FRET, GST-Vif 1-94, biotin-A3G peptide, dose response retest, primary screen (AID 1117319); TR-FRET GST-Vif / biotin-A3G peptide binding; higher % means a stronger effect; test concentration not given here; strong numbers were not always called active; inhibition, %; hits with a dose series show IC50 in µM; 260,000 compounds, 0.57% hits;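 active = above the screen mean plus three standard deviations and confirmed in dose response; inconclusive = results disagree or hit not tested in dose response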;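 note: Vif residues 1-94 fused to GST binding biotinylated APOBEC3G peptide 110-148; 0% = full assay without inhibitor and 100% = GST in place of GST-Vif; retest series ran down from 100 µM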
RanGTP-Impb inh: disruptors of Ran-importin-beta complex formation – biochemical, FRET, CFP-Ran, YFP-importin-beta, homogeneous, primary screen; cell-free CFP-Ran/YFP-importin-beta FRET ratio; AID 2216; inhibition, % (test concentration not listed); 300,000 compounds, 1.1% hits;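 active = most replicates above 15%; inconclusive = exactly half above 15%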;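 note: 0% = DMSO wells and 100% = Ran loaded with GDP instead of GTP; wells of about 40 µL received 100 nL stock; the first replicate is given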
Beta cell apopt: blocks beta cell apoptosis. INS-1E cytokine-induced death, ATP luminescence, 48 h; percent of positive-control rescue, neutral wells zero. protection from apoptosis, % (concentration not given with the values). 300,000 compounds, 0.8% hits;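 active = all replicates at 75% or more, or half of them and the mean; inconclusive = half reach 75% but not the mean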;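 note: 0% = cytokine-treated negative control wells and 100% = positive control rescue; higher means more ATP so stronger rescue from cytokine killing; wells of about 40 µL received 100 nL stock; the first replicate is given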
LANA-H2B inh: blocks KSHV LANA binding to histone H2A/H2B; Q9QR71; cell-free LANA-H2A/H2B peptide, fluorescence polarization; inhibition, % (no concentration beside the values); 320,000 compounds, 0.6% hits; in the data active = inhibition mostly above about 10%, no sharp cut-off; inactive = mostly below about 6.7%;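 note: stock transfer was 7.5 nL into about 10 µL; 0% = median of vehicle wells and 100% = median of positive control wells; one replicate is shown; the record names a cut of 25% in any replicate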
T cruzi repl: blocks replication of Trypanosoma cruzi; T. cruzi beta-gal in NIH3T3, luminescence, 90 h; inhibition, % (no concentration beside the values); 300,000 compounds, 1.4% hits; AID 1885;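 active = mean inhibition across valid replicates above about 55%, limit read from the data; inconclusive = mean below that limit but half or more replicates reach it; inactive = mean below it, under half of replicates reach it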;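 note: signal also drops with host cell toxicity which is not excluded here; 0% = plate median of DMSO wells and 100% = zero luminescence signal; higher percent means less beta-gal luminescence so fewer parasites; stock transfer was 50 nL into about 50 µL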
Bfl-1 A1 inh: inhibitors of the anti-apoptotic protein A1, read as caspase activation; AID 2462; caspase activation, % (concentration not given with the values); 330,000 compounds, 0.066% hits; MEF A1-2A-BIM cells, Caspase-Glo 3/7 luminescence, 3 h; percent of clofoctol response, vehicle zero;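 active = over half of replicate activation scores above 10%, or exactly half above 10 with the replicate mean above 10; inconclusive = replicate mean below 10 yet half the replicates above 10; inactive = over half of replicates below 10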;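 note: wells of about 30 µL received 50 nL stock; many hits fall short of the cut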
AF4-AF9 inh: blocks AF4 peptide binding to human AF9 | P42568 | AlphaScreen, biotin-AF4 peptide binding to FLAG-AF9 | inhibition, % at 10 µM | 350,000 compounds, 0.47% hits | AID 651704;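 active = every replicate reaching a set inhibition limit, whatever the replicate mean, cut at about 25% in these data; inconclusive = mean inhibition reaches that limit but some replicates miss it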;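 note: 0% = plate neutral control median and 100% = total signal loss; the record names both 10 and 1 µM as test concentration; the first replicate is given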
Target sequence (P42568 whole entry, looked up): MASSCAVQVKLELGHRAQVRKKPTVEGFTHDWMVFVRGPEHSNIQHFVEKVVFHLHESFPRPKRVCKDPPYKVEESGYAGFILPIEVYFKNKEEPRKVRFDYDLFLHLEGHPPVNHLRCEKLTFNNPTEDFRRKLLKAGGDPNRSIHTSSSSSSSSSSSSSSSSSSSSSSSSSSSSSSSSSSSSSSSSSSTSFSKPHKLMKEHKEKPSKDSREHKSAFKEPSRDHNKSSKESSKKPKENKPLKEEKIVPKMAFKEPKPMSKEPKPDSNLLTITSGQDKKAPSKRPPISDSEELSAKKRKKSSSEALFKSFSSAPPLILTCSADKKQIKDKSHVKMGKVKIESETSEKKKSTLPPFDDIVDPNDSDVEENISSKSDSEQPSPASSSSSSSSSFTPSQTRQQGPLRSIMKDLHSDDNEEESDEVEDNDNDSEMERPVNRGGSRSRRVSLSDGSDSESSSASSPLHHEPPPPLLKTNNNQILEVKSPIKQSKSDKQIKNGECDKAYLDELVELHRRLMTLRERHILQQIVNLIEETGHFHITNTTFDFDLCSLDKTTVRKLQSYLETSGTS
Calb FLC: affects C. albicans growth with fluconazole. C. albicans CaCi-2 (fluconazole-resistant clinical isolate) + fluconazole, Alamar Blue growth, 48 h. AID 1979. 300,000 compounds, 0.57% hits. growth inhibition, % (no concentration beside the values);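 active = most replicates above 75%; inconclusive = exactly half above 75%; inactive = most below 75%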;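 note: all wells also contain fluconazole at 8 µg/ml as a sub-toxic cotreatment; 0% = median of DMSO wells and 100% = median of geldanamycin control wells; wells of about 8 µL received 7.5 nL stock; the first replicate is given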
* marks the source's active call; other numbers are inactive results; ? = inconclusive; nt = not tested or not shown; & = joins results of further samples.

SMILES,Vif A3G,RanGTP-Impb inh,Beta cell apopt,LANA-H2B inh,T cruzi repl,Bfl-1 A1 inh,AF4-AF9 inh,Calb FLC
Cc1cc2ccccn2c1C(=O)c1ccc(F)cc1,nt,-0.9,-3,0.0,1,0.2,2.2,4
COc1ccc(CC(=O)Nc2c(C(N)=O)oc3ccccc23)cc1,-10%,0.2,-1,2.6,-16,0.8,0.1,-4
Cc1c(Br)ccc(NC(=O)Cn2nc(-c3cccs3)ccc2=O)c1C,nt,-1.3,-7,8.0,26,1.3,-11,-3
Cc1ccc2nc(NC(=O)CN3CCOCC3)sc2c1,2%,1.8,-2,-7.0,-10,-0.5,nt,6
Cc1nn(C(C)C(=O)NNC(=S)Nc2ccc(F)cc2)c(C)c1[N+](=O)[O-] (stereo not given),3%,1.2,-3,3.5,-9,0.0,nt,-28
CCOC(=O)c1c(C)[nH]c(C)c1C(=O)COC(=O)c1ccccc1O,nt,1.4,-4,-0.1,-15,-0.4,nt,-11
Nc1c2c(nc3ccn(Cc4ccccc4)c(=O)c13)CCC2,4%,-2.9,-2,-0.9,22,-0.5,nt,?
Cc1cccc2c1NC(=O)C2(O)N1CCCC(C)C1 (stereo not given),7%,?,-4,0.7,2,2.0,4.9,-19
CC1(C)CC(=O)C2=C(C1)N(c1ccc(F)cc1)C(=O)C2(O)C(F)(F)F (stereo not given),20%,3.9,-7,-1.0,3,1.3,nt,13
CCOC(=O)c1cnn(CCOC(=O)c2cccc(F)c2)c1NC(=O)c1cccc(F)c1,nt,-1.6,-2,0.3,-14,0.3,-8.3,17
O=C(COC(=O)CCCc1c[nH]c2ccccc12)Nc1ccc2c(c1)OCO2,?,8.3,2,3.9,-10,-0.5,nt,2
CCOc1cc(NC(=O)c2ccco2)c(OCC)cc1NC(=O)Cc1cccc(OC)c1,15%&12%,-0.3,4,-0.7,28,0.1,nt,-2
CN(CC(=O)Nc1ccc(Cl)cc1F)C1CCS(=O)(=O)C1 (stereo not given),3%,nt,-2,4.3,nt,0.9,1.2,nt
COc1ccc([N+](=O)[O-])cc1NS(=O)(=O)c1ccc(Cl)c(C(=O)Nc2sc3c(c2C#N)CCCCC3)c1,28%,2.4,2,2.9,-15,0.2,2.9,-6
CCOC(=O)Nc1nc(-c2ccc(Cl)cc2Cl)cs1,nt,-3.5,-2,0.2,-10,-0.1,-0.4,-28
CCOC(=O)c1c(NC(=O)c2cccc(N3C(=O)CCC3=O)c2)sc2c1CCN(CC)C2,-3%,21*,nt,-0.5,12,0.0,4.8,-2
CCc1cccc(C)c1NC(=O)COC(=O)C1CCN(S(=O)(=O)c2ccccc2)CC1,-2%,1.0,-3,1.1,-4,0.1,-9.5,-9
CCC(=O)n1nc(-c2ccc(Cl)cc2)nc1NCc1ccccc1,0%,0.6,6,-4.8,-10,-0.4,6.8,-8
COc1ccc2c(c1)CCc1c(C(=O)NCCCn3ccnc3)noc1-2,-4%,-0.5,5,3.2,5,-0.1,nt,29
O=C(Nc1ncccn1)c1cc(-c2cccc(Br)c2)nc2ccccc12,nt,?,12,-4.9,24,-0.6,nt,40
O=C(O)/C=C\C(=O)O,nt,nt,-9,2.2,nt,0.2,-23,nt
COc1cc(CN2CCN(S(=O)(=O)c3ccc(F)cc3)CC2)cc(OC)c1OC,-4%,1.1,-7,-1.6,1,0.8,nt,3
CCCc1c(C(=O)N/N=C/c2ccc(OC)c(OCc3ccccc3)c2)nnn1-c1nonc1N,nt,3.0,16,4.9,-18,-0.5,0.0,nt
C=CCSc1nnc(CC(OC)OC)n1-c1ccccc1,1%,2.8,1,3.7,0,0.3,-2.7,5
N#Cc1c2c(c(-c3ccco3)[nH]c1=O)CCCC2,?,3.0,-6,6.7,-2,0.2,nt,-6

Continuation:
SMILES,Vif A3G,RanGTP-Impb inh,Beta cell apopt,LANA-H2B inh,T cruzi repl,Bfl-1 A1 inh,AF4-AF9 inh,Calb FLC
Nc1nc2nccc(-c3ccc(Cl)cc3)n2n1,-3%,nt,2,2.2,nt,-1.6,nt,nt
Cc1cc(C)c(C)c(S(=O)(=O)NCc2ccc(C(=O)N3CCCC3)cc2)c1C,-9%,1.9,nt,0.3,3,-0.9,-0.1,10
CN(NS(=O)(=O)c1ccc(Cl)cc1)c1nc(C(F)(F)F)nc2ccccc12,-3%,nt,26,1.6,-29,0.5,-5.1,-9
C=C(C)CSc1nnc2n(C)c(=O)c3c4c(sc3n12)CCC4,1%,7.0,4,-20,21,0.4,nt,23
CC(C)CCOc1ccc(C(=O)N2CCN(c3ncccn3)CC2)cc1,0%,?,4,0.0,-14,0.1,-2.6,0
O=C(Nc1ccccc1N1CCN(C(=O)c2ccccc2)CC1)c1ccc([N+](=O)[O-])o1,nt,3.0,nt,nt,40,nt,6.6,3
CC(=O)c1c(C)n(-c2cccc(Cl)c2)c2ccc(O)cc12,nt,1.5,-11,2.5,1,0.6,-1.8,3
Cc1cccc(C=Nc2ccccc2C(N)=O)c1,0%,2.9,8,-1.1,-11,-4.3,4.4,-11
COc1ccc(-c2nnn(CC(=O)N3CCOCC3)n2)cc1,1%,2.1,5,0.6,-22,-0.1,6.6,?
COc1ccc(CNC(=O)C2CC(=O)N(C3CCCC3)C2)cc1 (stereo not given),6%,0.8,-4,1.9,2,-0.6,-0.6,-6
COC(=O)c1ccccc1NC(=O)c1ccnn1C,nt,3.6,0,-0.6,-20,-0.4,-2.3,-9
O=C(NC(=S)NNC(=O)c1ccccc1O)c1cccc([N+](=O)[O-])c1,nt,-3.0,0,0.8,0,-1.1,-4.3,1
COCCN(CCOC)S(=O)(=O)NC[C@H]1O[C@@H](n2cnc3c(N)ncnc32)[C@H](O)[C@@H]1O,8%,nt,-3,-412,nt,-0.1,-1.7,nt
COc1cccc(CNC(=O)CCC2CCCN(Cc3ccc(OC(F)F)cc3)C2)c1 (stereo not given),14%,?,nt,5.3,49,-0.1,0.9,6
O=C(NNC(=O)c1cc(OCC(F)(F)F)ccc1OCC(F)(F)F)c1cccc(C(F)(F)F)c1,7%&64%,1.9,1,-0.6,-2,2.8,nt,-1
O=C(CC1NCCN(Cc2ccccc2)C1=O)Nc1ccccc1 (stereo not given),-1%,0.7,-6,3.1,-6,0.4,0.3,-3
CC(=O)OCCOc1nc(NC(C)C)nc(NC(C)C)n1,-11%,-2.7,-3,0.2,-8,-0.3,nt,-3
O=C(O)c1ccc2c(c1)C(=O)N(Cc1ccc3c(c1)OCO3)C2=O,?,3.2,-5,2.2,-7,0.5,nt,10
OCCOCCOc1ccccc1OCCOCCO,-2%,-2.4,1,2.9,-6,1.4,-5.8,-7
COc1ccc(N2CCN(C(=O)CSc3ccc(C)cc3)CC2)cc1,2%,4.9,-8,1.0,-8,0.1,-0.2,-1
O=C(Nc1cccc(S(=O)(=O)NC2=NCCC2)c1)c1cnc(Cl)c(Cl)c1,-4%,nt,0,-1.9,nt,-0.8,0.2,nt
C/C(CC1(O)C(=O)N(C)c2ccccc21)=N\O (stereo not given),20%,-0.6,-7,1.9,1,-0.9,nt,6
COc1ccc(CCNC(=O)COC(=O)c2cc3ccccc3oc2=O)cc1OC,nt,nt,2,-3.2,nt,0.4,-51,nt
CCOc1ccc(-c2csc(NC(=O)CSC3=NC(=O)CN3C(C)=O)n2)c2ccccc12,15%,?,1,-1.5,-2,1.2,nt,-2
CCOc1cc(/C=N/NC(=O)CSc2nncn2C)ccc1OCc1cccc(C)c1,nt,2.1,-10,nt,-7,0.8,nt,7

Other entries
SMILES,Vif A3G,RanGTP-Impb inh,Beta cell apopt,LANA-H2B inh,T cruzi repl,Bfl-1 A1 inh,AF4-AF9 inh,Calb FLC
COC(=O)C/C=C/[C@@H](C)[C@@H](/C=N/OC[C@@H](C)[C@H](OCc1ccccc1)C(C)C)NS(=O)(=O)c1ccc(C)cc1,-4%,-1.6,nt,3.3,10,-1.9,nt,3
Cc1cc(C)c2c(CN3CCN(Cc4ccccc4)CC3)cc(=O)oc2c1C,1%,1.4,-5,2.5,31,-0.3,0.4,-9
CCn1c(SCc2cccc(C(=O)O)c2)nnc1-c1ccc(Cl)cc1,nt,1.2,5,2.7,-3,0.9,-2.4,6
CCCc1sc(N)nc1-c1ccc(C)cc1,-10%,0.5,-5,-2.4,5,0.7,nt,0
O=C(Nc1ccc(Br)cc1F)C1CCN(c2nnc(-n3cccc3)s2)CC1,-2%&-5%,-0.6,0,-1.8,4,0.7,-0.2,-2
N#CC1=C(SCC(=O)NC2CC2)NC(=O)C(C#N)C12CCCCC2 (stereo not given),-3%,3.1,-5,4.5,2,-0.4,nt,-10
O=C(Nc1ccc(OC(F)(F)F)cc1)N1CCN(c2ccnc3cc(Cl)ccc23)CC1,-5%,6.5,68,-6.3,64*,-0.4,-1.6,35
Nc1ccc(C(=O)N/N=C/c2sc(N3CCOCC3)nc2-c2ccccc2)cc1,25%,2.5,5,1.6,9,-0.6,-4.2,5
COc1ccc(OC)c(N/C=C/C(=C(C#N)C#N)N(C)C)c1,nt,?,-3,-0.5,12,0.1,3.5,0
O=C(NNC(=O)c1ccccc1-n1cccc1)c1ccc(Cl)cc1,27%,2.2,-2,3.3,-8,-0.5,nt,-13
CCOC(=O)C1CCCN(Cc2cccc(Oc3ccccc3)c2)C1 (stereo not given),nt,-0.4,-1,3.6,38,0.0,-6.4,-8
N#Cc1ccccc1Cn1cc(/C=N/Nc2ccc([N+](=O)[O-])cn2)c2ccccc21,-3%,-6.4,10,0.4,64*,-0.2,1.2,-7
CCOC(=O)c1ccc(-c2ccc(C3Nc4ccccc4C(=O)N3O)o2)cc1 (stereo not given),-3%,?,7,2.6,16,-0.5,17,91*
COC(=O)c1ccccc1NC(=O)CN(C)Cc1ccccc1,-5%,-5.6,-11,-3.2,20,-0.4,-1.6,-10
Cc1ccc(C)c(NC(=O)C2CCN(S(=O)(=O)c3ccc4c(c3)NC(=O)CO4)CC2)c1,-2%,-0.2,0,-0.8,-2,-0.4,1.3,-4
COc1ccc(S(=O)(=O)N(CC(=O)NC2CC2)c2ccc(C)cc2)cc1,nt,-0.7,-1,5.3,-3,0.8,4.1,9
CCCCNC(=O)OCCNC(=O)NC,2%,nt,0,-0.2,-1,0.1,nt,-14
COc1ccc(NS(=O)(=O)c2cccc3cccnc23)cc1OC,nt,-1.9,3,1.1,-9,0.8,1.8,6
CCCOc1ccc2[nH]c(C(=O)N/N=C/c3cc(OC)c(OC)c(OC)c3)cc2c1,-1%,5.2,29,0.2,6,0.8,0.4,6
Cc1ccc(NC(=O)c2cc(-c3ccccc3)nn2-c2ccccc2)c(Br)c1,?,?,-12,-5.0,18,0.2,2.5,-6
Cc1[nH]c(=S)[nH]c(=O)c1CCOc1ccccc1,-1%,3.9,-1,-2.7,2,0.4,nt,-9
CCOC(=O)c1ccc(N=C2S/C(=C\c3cc(C)n(-c4cccnc4)c3C)C(=O)N2C)cc1,3%,-0.1,-18,-1.1,2,-0.3,nt,5
Cc1ccc(Cn2ccnc2C(=O)Nc2ccccc2)cc1,nt,?,6,-0.2,3,-6.4,-5.6,-15
